Source: PubChem (National Center for Advancing Translational Sciences (NCATS))
TSHR ag = activates the human thyroid stimulating hormone receptor | hit rate 0.48% among 73,000 | P16473 | HEK293-CNG-TSHR cells (CNG channel as cAMP sensor), membrane potential dye, cAMP | Potency, µM (series often up to 57.1 µM), for inactives: at the highest dose activation, usual class: activators | AID 926; active = well fitted activation curve of enough size with the parental cells flat; inconclusive = any curve in the parental cells; inactive = parental cells flat and receptor cells flat or falling; further: % of control where 0% means no effect; weak receptor curves with flat parental cells got no call and are not listed
Target sequence (P16473 whole entry, looked up): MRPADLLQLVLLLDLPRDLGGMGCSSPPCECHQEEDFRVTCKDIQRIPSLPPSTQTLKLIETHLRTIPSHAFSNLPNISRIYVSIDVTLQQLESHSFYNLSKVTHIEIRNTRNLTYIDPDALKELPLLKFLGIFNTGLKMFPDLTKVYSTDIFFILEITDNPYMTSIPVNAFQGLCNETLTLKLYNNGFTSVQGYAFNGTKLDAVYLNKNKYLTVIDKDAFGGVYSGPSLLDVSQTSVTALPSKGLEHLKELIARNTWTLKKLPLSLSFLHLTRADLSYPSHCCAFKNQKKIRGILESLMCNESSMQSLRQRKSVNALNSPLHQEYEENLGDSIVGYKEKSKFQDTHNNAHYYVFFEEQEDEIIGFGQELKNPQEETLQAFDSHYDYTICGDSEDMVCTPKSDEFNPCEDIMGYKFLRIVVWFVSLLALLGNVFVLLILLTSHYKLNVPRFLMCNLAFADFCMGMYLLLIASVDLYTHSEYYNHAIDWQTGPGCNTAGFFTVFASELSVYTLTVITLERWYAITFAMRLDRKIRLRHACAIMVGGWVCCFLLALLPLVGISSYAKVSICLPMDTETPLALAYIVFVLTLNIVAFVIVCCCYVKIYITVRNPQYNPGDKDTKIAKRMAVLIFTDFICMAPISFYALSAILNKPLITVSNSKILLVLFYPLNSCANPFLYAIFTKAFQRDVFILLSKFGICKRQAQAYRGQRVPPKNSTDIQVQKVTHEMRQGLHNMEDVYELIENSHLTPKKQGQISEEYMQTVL
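cAMP rise detected as CNG-channel membrane depolarization by fluorescent dye (emission 590 nm), 30 min after compound, following 60 min dye loading containing 100 uM RO 20-1724 at room temperature. Cells: TSHR/CNG HEK 293, with parental CNG HEK 293 as control.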
AID923 = qHTS Assay for Allosteric/Competitive Inhibitors of Caspase-1: Spectroscopic Profiling in AFC Spectral Region; compound fluorescence, AFC spectral region (405/520 nm); almost no hit is shown here; Potency, µM (top dose mostly 57.5 µM), for the others: at the top dose fluorescence increase, usual class: activators; hit rate 1.1% among 75,000; AID 923, 2007; active means well fitted activation curve with a large enough effect; inconclusive means small, poorly fitted or top-dose-only effect;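 further: 0% is about no effect; scaled to a free AFC standard on each plate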
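Compound autofluorescence profiled at 405 nm ex/520 nm em during kinetic caspase 1 run (50 nM enzyme, 5 uM Ac-WEHD-AFC, HEPES pH 7.5, 10 mM DTT). Titration up to 57 uM; baseline from regression intercept, normalized to AFC standard curve.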
The depositor's hits bear a star; ? = inconclusive; . = no result given; & = joins results of further samples. Potency means the concentration at half of the fitted maximal effect.

CC(C)N1C(=O)c2ccccc2NS1(=O)=O
  TSHR ag: .
  AID923: 0.8%
O=c1cccc2n1CC1CC2CN(CCO)C1 (stereo not given)
  TSHR ag: .
  AID923: 1.3%
COc1cc2c(cc1OC)[C@@]13CCN4CC5=CCOC6CC(=O)N2C1[C@H]6[C@@H]5C[C@@H]43 (stereo not given in full)
  TSHR ag: .
  AID923: -1.3%
CCC1/C=C/C=CCC(C)C(O)[C@@](C)(O)C(=O)C(C)C(O)C(C)C(=O)C(C)C(O)C(C)C=CC(=O)O[C@H]2C(C)C(CC1)O[C@]1(CCC(C)C(CC(C)O)O1)C2C (stereo not given in full)
  TSHR ag: .
  AID923: -3.4%
c1ccc2c(c1)sc1ccccc12
  TSHR ag: .
  AID923: -1.0%
OC1CCCCC1N1CCC(c2ccccc2)CC1 (stereo not given)
  TSHR ag: .
  AID923: -1.9%
CC1(C)N([O-])[N+](=O)C1(C)Br (stereo not given)
  TSHR ag: .
  AID923: -3.0%
CC(=O)OC1C2CCC3C1(CC(O)[C@@]1(O)[C@@H](CC(O)C1(C)C)[C@]3(C)O)C[C@@]2(C)O (stereo not given in full)
  TSHR ag: .
  AID923: 1.4%
NC(=O)c1cc([N+](=O)[O-])cc([N+](=O)[O-])c1
  TSHR ag: .
  AID923: -1.4%
O=C1c2ccccc2C(=O)c2ccccc21
  TSHR ag: .
  AID923: 11%

Retrieved by compound from the list above:
CC(=O)OC1C2CCC3C1(CC(O)[C@@]1(O)[C@@H](CC(O)C1(C)C)[C@]3(C)O)C[C@@]2(C)O (stereo not given in full)
  TSHR ag: .
  AID923: 1.4%
c1ccc2c(c1)sc1ccccc12
  TSHR ag: .
  AID923: -1.0%
OC1CCCCC1N1CCC(c2ccccc2)CC1 (stereo not given)
  TSHR ag: .
  AID923: -1.9%
O=c1cccc2n1CC1CC2CN(CCO)C1 (stereo not given)
  TSHR ag: .
  AID923: 1.3%

Further entries:
COc1ccc(CC2NC[C@H](O)[C@H]2OC(C)=O)cc1 (stereo not given in full)
  TSHR ag: .
  AID923: 1.6%
CCN1C[C@@]2(COC)C3[C@@H](OC)C4[C@@H]1[C@@]3(C1C[C@@]3(O)[C@H](OC(=O)c5ccccc5)C1[C@]4(OC(C)=O)[C@@H](O)[C@@H]3OC)[C@@H](OC)C[C@H]2O (stereo not given in full)
  TSHR ag: .
  AID923: -1.2%
CNc1ccc(C(=O)CC(O)CCC(C)C2OC(=O)CC(O)CC(=O)CC(O)CC(O)CC(O)CC(O)CC3(O)CC(O)C(C(=O)OC)C(CC(O[C@@H]4OC(C)C(O)C(N)C4O)/C=C/C=C/C=C/C=C/C=C/C=C/C=C/C2C)O3)cc1 (stereo not given in full)
  TSHR ag: .
  AID923: 0.5%
CC(C)(C)C(=O)C(Oc1ccc(Cl)cc1)n1cncn1 (stereo not given)
  TSHR ag: .
  AID923: -0.6%
CN1Cc2c(ccc3c2OCO3)C2C(O)Cc3cc4c(cc3C21)OCO4 (stereo not given)
  TSHR ag: .
  AID923: -3.1%&1.2%
C/C=C1/C[C@@H](C)[C@](O)(CO)C(=O)OCC2=CCN3CC[C@@H](OC1=O)C23 (stereo not given in full)
  TSHR ag: .
  AID923: 0.3%
O=c1c(O)c(-c2ccc(O)c(O)c2)oc2c(O)c(O)cc(O)c12
  TSHR ag: .
  AID923: -1.7%
CCC(C)C(=O)OC1C[C@@]2(C)C(c3ccoc3)OC(=O)CC23OC2(C)OC34C(OC(=O)C(C)C)[C@]3(O)C(OC(=O)C5(C)OC5C)[C@]5(C)CC3(O)[C@](C)(C5CC(=O)OC)C14O2 (stereo not given in full)
  TSHR ag: .
  AID923: -3.5%
CCS(=O)CCSP(=O)(OC)OC (stereo not given)
  TSHR ag: .
  AID923: -3.0%
CCCC(C)C1(CC)C(=O)NC(=O)NC1=O (stereo not given)
  TSHR ag: .
  AID923: -2.5%

Four compounds from above, arranged by heavy-atom count, largest number first:
CNc1ccc(C(=O)CC(O)CCC(C)C2OC(=O)CC(O)CC(=O)CC(O)CC(O)CC(O)CC(O)CC3(O)CC(O)C(C(=O)OC)C(CC(O[C@@H]4OC(C)C(O)C(N)C4O)/C=C/C=C/C=C/C=C/C=C/C=C/C=C/C2C)O3)cc1 (stereo not given in full)
  TSHR ag: .
  AID923: 0.5%
CN1Cc2c(ccc3c2OCO3)C2C(O)Cc3cc4c(cc3C21)OCO4 (stereo not given)
  TSHR ag: .
  AID923: -3.1%&1.2%
O=c1c(O)c(-c2ccc(O)c(O)c2)oc2c(O)c(O)cc(O)c12
  TSHR ag: .
  AID923: -1.7%
CCS(=O)CCSP(=O)(OC)OC (stereo not given)
  TSHR ag: .
  AID923: -3.0%

(listing goes on)
CC(=O)OC1CC2C(C)(C)C(O)C=C[C@@]2(C)C2CC[C@]3(C)C(=CC(=O)OC3c3ccoc3)[C@]12C (stereo not given in full)
  TSHR ag: .
  AID923: -2.9%
C[C@@]12C=CC(=O)C=C1CCC1C2CC[C@]2(C)C(=O)CCC12 (stereo not given in full)
  TSHR ag: .
  AID923: 0.0%
COC(=O)[C@@H]1C[C@@]2(O)[C@@H](O)[C@@H](O)[C@@H](O)C[C@H]2N1Cc1cccnc1
  TSHR ag: .
  AID923: -0.3%
CC(C)=CCOc1c2occc2cc2ccc(=O)oc12
  TSHR ag: .
  AID923: -1.0%
C[C@]1(C(=O)O)CCC[C@]2(C)c3cc(O)ccc3CC[C@@H]12
  TSHR ag: .
  AID923: 1.0%
CCNc1nc(Cl)nc(NCC)n1
  TSHR ag: .
  AID923: -0.2%
CC1CC[C@]2(NC1)OC1CC3C4CC=C5CC(O)CC[C@@]5(C)C4CC[C@]3(C)C1C2C (stereo not given in full)
  TSHR ag: .
  AID923: -2.1%
c1cc2c(cc1[C@H]1OC[C@@H]3[C@H]1CO[C@H]3c1ccc3c(c1)OCO3)OCO2
  TSHR ag: .
  AID923: -2.4%
CC(C)(C)[C@]1(O)C[C@@H]2OC(=O)C[C@@]23C(=O)O[C@@H]2OC(=O)[C@H](O)[C@]213
  TSHR ag: .
  AID923: 0.0%
c1cncc(C2CCCCN2)c1 (stereo not given)
  TSHR ag: .
  AID923: -0.3%

NCCc1cc(O)c(O)cc1O
  TSHR ag: .
  AID923: 0.2%
CCOP(=S)(OCC)SCn1c(=O)oc2cc(Cl)ccc21
  TSHR ag: .
  AID923: 0.0%
C=C(C)[C@H]1C2C(=O)O[C@H]1[C@H]1OC(=O)[C@@]34O[C@@H]3C[C@]2(O)[C@@]14C
  TSHR ag: .
  AID923: -1.4%
CC(C)=CCCC1(C)C=Cc2c(O)c3c(c(CC=C(C)C)c2O1)OC12C(=CC4CC1C(C)(C)OC2(C/C=C(/C)C(=O)O)C4=O)C3=O (stereo not given)
  TSHR ag: .
  AID923: -6.5%
COC(=O)/C(C)=C\CC12OC(C)(C)C3CC(C=C4C(=O)c5c(OC)c6c(c(CC=C(C)C)c5OC431)OC(C)(CCC=C(C)C)C=C6)C2=O (stereo not given)
  TSHR ag: .
  AID923: -1.8%
CC1CC[C@@]2(NC1)O[C@@H]1C[C@H]3C4CC=C5C[C@@H](O)CC[C@]5(C)C4CC[C@]3(C)[C@H]1[C@@H]2C (stereo not given in full)
  TSHR ag: .
  AID923: -0.5%
CC1CC2CC(=O)C3CCCN4CCCC2[C@]34C1 (stereo not given in full)
  TSHR ag: .
  AID923: -1.9%
CCCCCCCCCCCCCC(=O)OC1C(C)[C@@]2(O)C(C=C(CO)C[C@]3(O)C(=O)C(C)=C[C@H]23)[C@@H]2C(C)(C)[C@]12OC(C)=O (stereo not given in full)
  TSHR ag: .
  AID923: -1.3%
NC(Cc1ccc(N(CCCl)CCCl)cc1)C(=O)O (stereo not given)
  TSHR ag: .
  AID923: -1.2%
O=c1cccc2n1CC1CC2CN2CCCC[C@H]12 (stereo not given in full)
  TSHR ag: .
  AID923: -0.2%

CC(=O)OC1CC2C(C)(C)C(=O)C=C[C@]2(C)C2CC[C@]3(C)C(=CC(=O)OC3c3ccoc3)[C@]12C (stereo not given in full)
  TSHR ag: .
  AID923: 1.1%
Cn1c(O)c(C(=NCCN2CCCCC2)c2ccccc2Cl)c(=O)n(C)c1=O
  TSHR ag: .
  AID923: 9.6%
CN(CCC(N)CC(=O)NC1C=CC(n2ccc(N)nc2=O)OC1C(=O)O)C(=N)N (stereo not given)
  TSHR ag: .
  AID923: -1.7%
CC(=O)C1CC[C@H]2C3CC[C@@H]4CC(O)CC[C@@]4(C)C3CC[C@]12C (stereo not given in full)
  TSHR ag: .
  AID923: 0.2%
CC(=O)C1CCC2C3CCC4CC(O)CCC4(C)C3CC(O)C12C (stereo not given)
  TSHR ag: .
  AID923: -0.3%
CC(=O)OC1C(=O)[C@]2(C)C(O)CC3OC[C@]3(OC(C)=O)C2[C@@H](OC(=O)c2ccccc2)[C@]2(O)CC(O)C(C)=C1C2(C)C (stereo not given in full)
  TSHR ag: .
  AID923: -0.8%
CC1(C)C(O)CC(O)[C@]2(C)C1CC(O)[C@]1(C)C2CC[C@@]2(C)C(c3ccoc3)CC3OC312 (stereo not given in full)
  TSHR ag: .
  AID923: -1.3%
Clc1ccc(C(OCCN2CCCCC2)c2ccccc2)cc1 (stereo not given)
  TSHR ag: .
  AID923: 0.8%
CCCC[C@@H]1C[C@H]1C(NP(=O)(c1ccccc1)c1ccccc1)c1ccc(Cl)cc1 (stereo not given in full)
  TSHR ag: ?
  AID923: .

Some of the compounds tested, so the mix of outcomes need not match the whole.
